Assay outcomes from PubChem.
MLL AF4-AF9 inh = blocks AF4 peptide binding to human AF9. 350,000 compounds, 0.47% hits. inhibition, % at 10 µM. P42568. AID 651704. AlphaScreen, biotin-AF4 peptide binding to FLAG-AF9;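 active = every replicate reaching a set inhibition limit, whatever the replicate mean, cut at about 25% in these data; inconclusive = mean inhibition reaches that limit but some replicates miss it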;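 note: 0% = plate neutral control median and 100% = total signal loss; the record names both 10 and 1 µM as test concentration; the first replicate is given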
Target sequence (P42568 whole entry, looked up): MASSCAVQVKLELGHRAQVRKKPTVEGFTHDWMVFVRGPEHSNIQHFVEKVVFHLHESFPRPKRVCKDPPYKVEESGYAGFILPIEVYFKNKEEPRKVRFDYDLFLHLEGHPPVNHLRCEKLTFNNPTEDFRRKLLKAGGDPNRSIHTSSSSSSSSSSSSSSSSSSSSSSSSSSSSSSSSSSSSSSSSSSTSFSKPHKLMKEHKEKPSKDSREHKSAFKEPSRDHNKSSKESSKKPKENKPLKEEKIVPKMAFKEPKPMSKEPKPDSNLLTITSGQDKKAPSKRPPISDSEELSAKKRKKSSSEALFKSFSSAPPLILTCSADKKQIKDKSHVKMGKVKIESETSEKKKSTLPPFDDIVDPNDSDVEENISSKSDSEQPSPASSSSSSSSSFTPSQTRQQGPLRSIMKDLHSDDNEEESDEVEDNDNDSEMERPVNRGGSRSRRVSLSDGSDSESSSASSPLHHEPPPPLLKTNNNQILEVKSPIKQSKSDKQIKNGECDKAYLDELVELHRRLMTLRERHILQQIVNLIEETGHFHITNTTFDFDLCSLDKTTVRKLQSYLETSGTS
ALR inh = inhibitors of human sulfhydryl oxidase ALR; P55789; purified ALR, DTT oxidation, H2O2 HRP-luminol luminescence; inhibition, % (test concentration not listed); 290,000 compounds, 3.8% hits;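 active = mean and each replicate at 75% or more; inconclusive = only one of the two met; inactive = neither met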;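 note: stock transfer was 7.5 nL into about 7.5 µL; 0% = neutral wells and 100% = wells with inactivated enzyme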
Target sequence (P55789 whole entry, looked up): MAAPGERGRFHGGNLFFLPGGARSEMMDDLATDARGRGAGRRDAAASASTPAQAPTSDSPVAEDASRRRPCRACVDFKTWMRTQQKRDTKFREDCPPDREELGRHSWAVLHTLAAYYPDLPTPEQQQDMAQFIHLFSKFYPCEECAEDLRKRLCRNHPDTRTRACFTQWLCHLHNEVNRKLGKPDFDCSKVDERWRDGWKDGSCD
rRNA inh HTS = inhibitors of bacterial rRNA selective over humanized ribosomes. GFP signal change (wild-type ribosome), % (test concentration not listed). 350,000 compounds, 1.6% hits. E. coli WT GFP vs humanized-ribosome RFP mutants, fluorescence, 24 h; hits give low values; DMSO median 0, no signal -100;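 active = significant combined selectivity score with lowered wild-type GFP, culture density cut under 30%, mutant RFP and density less affected; inactive = any of these conditions unmet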; note: one replicate is shown; some compounds called inactive have numbers as strong as hits
FGF22 binding = binders of recombinant human FGF22 by thermal shift. calls only at 9.99 µM. AID 651658. SYPRO orange fluorescence; percent of sucrose octasulfate shift, DMSO zero. 340,000 compounds, 1.5% hits;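 active = melting point raised past a set limit in the mean and every replicate; inconclusive = no clear call; three in four hits are not shown here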
Target sequence (Q9HCT0 whole entry, looked up): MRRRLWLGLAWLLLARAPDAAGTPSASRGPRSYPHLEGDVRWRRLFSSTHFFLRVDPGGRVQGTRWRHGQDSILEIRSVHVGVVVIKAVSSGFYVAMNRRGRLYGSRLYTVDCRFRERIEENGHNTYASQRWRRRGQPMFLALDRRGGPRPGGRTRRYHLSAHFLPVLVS
RanGTP-Impb inh = inhibitors of RanGTP-importin-beta interaction, primary screen, biochemical, FRET, CFP-Ran, YFP-importin-beta, homogeneous; cell-free CFP-Ran/YFP-importin-beta FRET ratio; inhibition, % (test concentration not listed); 300,000 compounds, 1.1% hits;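 active = most replicates above 15%; inconclusive = exactly half above 15%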;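 note: 0% = DMSO wells and 100% = Ran loaded with GDP instead of GTP; wells of about 40 µL received 100 nL stock; the first replicate is given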
Calb FLC = affects C. albicans growth with fluconazole; C. albicans CaCi-2 (fluconazole-resistant clinical isolate) + fluconazole, Alamar Blue growth, 48 h; growth inhibition, % (concentration not given with the values); 300,000 compounds, 0.57% hits; AID 1979;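 active = most replicates above 75%; inconclusive = exactly half above 75%; inactive = most below 75%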;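 note: all wells also contain fluconazole at 8 µg/ml as a sub-toxic cotreatment; 0% = median of DMSO wells and 100% = median of geldanamycin control wells; wells of about 8 µL received 7.5 nL stock; the first replicate is given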
Beta apoptosis = blocks beta cell apoptosis. INS-1E cytokine-induced death, ATP luminescence, 48 h; percent of positive-control rescue, neutral wells zero. protection from apoptosis, % (no concentration beside the values). 300,000 compounds, 0.8% hits. AID 435005;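 active = all replicates at 75% or more, or half of them and the mean; inconclusive = half reach 75% but not the mean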;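 note: 0% = cytokine-treated negative control wells and 100% = positive control rescue; higher means more ATP so stronger rescue from cytokine killing; wells of about 40 µL received 100 nL stock; the first replicate is given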
T cruzi repl = blocks replication of Trypanosoma cruzi. T. cruzi beta-gal in NIH3T3, luminescence, 90 h. inhibition, % (test concentration not listed). 300,000 compounds, 1.4% hits;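 active = mean inhibition across valid replicates above about 55%, limit read from the data; inconclusive = mean below that limit but half or more replicates reach it; inactive = mean below it, under half of replicates reach it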;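 note: signal also drops with host cell toxicity which is not excluded here; 0% = plate median of DMSO wells and 100% = zero luminescence signal; higher percent means less beta-gal luminescence so fewer parasites; stock transfer was 50 nL into about 50 µL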
rRNA inh HTS OD600 = further read-out of rRNA inh HTS, marked with its call; OD600 change, %; measured here: OD600 growth;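 optical density of the mix in the first replicate; 0 = DMSO median and -100 = no signal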
rRNA inh HTS RFP = recorded beside rRNA inh HTS, whose call it bears; RFP signal change, %; measured here: RFP humanized mutant strains;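 first replicate; 0 = DMSO median and -100 = no signal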
* = called active by the depositor; i = inactive; ? = inconclusive; . = no result given. Only part of the results is shown. The share of hits here may be higher or lower than overall.

SMILES	MLL AF4-AF9 inh	ALR inh	rRNA inh HTS	rRNA inh HTS OD600	rRNA inh HTS RFP	FGF22 binding	RanGTP-Impb inh	Calb FLC	Beta apoptosis	T cruzi repl
CN(/N=C/c1ccc(O)cc1O)c1ncc(C(F)(F)F)cc1Cl	3.0	53.5	-56.0	-80.0	-14.8	i	1.6	22.3	2.0	8.9
CCOCCCNC(=O)C1CCN(S(=O)(=O)N2CCCC2)CC1	1.0	.	21.6	17.3	0.4	i	-1.7	1.7	-0.3	0.3
Clc1ccc(-c2nnc3n2CCCCC3)cc1	.	-0.9	.	.	.	.	2.8	4.8	1.0	5.3
O=C(COC(=O)CNC(=O)C1CCCCC1)Nc1ccc2ccccc2c1	.	-13.4	.	.	.	.	6.9	-5.9	-8.2	3.8
O=c1c2ccccc2cnn1Cc1n[nH]c(=S)n1-c1ccc(F)c(Cl)c1	-4.5	39.4	1.0	-5.2	-3.6	.	2.3	-3.0	-2.1	2.6
Cc1[nH]c(C)c(S(=O)(=O)N2CCN(c3cccc(Cl)c3)CC2)c1C(=O)N1CCCC1	3.8	-6.6	-12.1	-0.5	0.1	i	-1.9	-1.5	-4.8	-1.2
Fc1c(F)c(F)c(CSc2nc3ccccc3[nH]2)c(F)c1F	.	5.3	.	.	.	.	2.0	9.6	-0.1	-1.2
CN(C)c1ccc(/C=N/NC(=O)CN2CCN(c3ccc(F)cc3)CC2)cc1	.	0.2	.	.	.	.	2.8	-3.0	.	-8.7
Cc1ccc(C(=O)Nc2nccc(C)n2)cc1	-7.6	-13.0	2.2	-3.1	-2.8	i	1.3	2.7	-3.7	-0.7
COc1cccc(C(=O)Nc2ccc(C(=O)c3ccncc3)cc2)c1	-0.6	-1.2	-2.6	-11.9	3.0	i	4.2	23.7	6.7	-17.3
Cc1ccc(N2CC(C(=O)Nc3nnc(SCC(=O)Nc4cc(C)on4)s3)CC2=O)cc1 (stereo not given)	-29.2	.	8.8	6.6	-9.0	i	-2.2	22.5	-3.4	-3.1
O=C(c1ccccc1NS(=O)(=O)c1cccc([N+](=O)[O-])c1)N1CCOCC1	.	-9.7	.	.	.	.	1.2	-0.6	-3.2	-3.4
O=[N+]([O-])c1ccc(C(O)CSC(=S)N2CCCCC2)cc1 (stereo not given)	-0.5	0.9	-3.5	-1.6	-0.7	i	5.3	-21.0	2.2	4.9
Cc1cc(C(=O)N/N=C/c2c3ccccc3cc3ccccc23)n[nH]1	4.1	.	-31.6	-32.5	-11.7	i	0.6	0.9	12.9	9.9
COc1ccc(N(C(=O)CNC(=O)c2ccco2)C(C(=O)NCC2CCCO2)c2ccccc2)cc1Cl (stereo not given)	8.0	-0.7	5.0	0.3	-1.7	i	2.9	7.7	-2.6	5.0
COc1ccccc1/C=C/C=N/N1CCN(Cc2ccc(Cl)cc2)CC1	.	-20.8	.	.	.	.	?	19.9	-0.7	-11.5
CCCCc1c(O)nc(SCC(=O)O)[nH]c1=O	-3.0	5.3	19.5	22.4	2.8	i	-2.9	-5.8	-2.2	-3.6
COc1ccc(N(C(=O)c2snc(C(N)=O)c2N)C(C(=O)NC2CCCCC2)c2ccc(C)o2)c(OC)c1 (stereo not given)	4.8	-16.0	-9.3	-16.1	2.1	i	-3.6	-13.5	5.6	9.1
CC(=O)c1cn(CCCCCCCn2cc(C(C)=O)c(=O)[nH]c2=O)c(=O)[nH]c1=O	1.2	1.5	14.6	10.4	3.7	i	-0.3	-0.8	-6.0	-18.1
CCOC(=O)CSc1nnc(Cc2ccccc2)n1CC1CCCO1 (stereo not given)	.	-2.8	.	.	.	.	3.0	-17.9	2.0	-14.5
NC(=O)C1CCN(C(=O)Nc2csc3ccccc23)CC1	0.2	2.0	-1.5	-7.0	-4.6	i	2.1	3.2	-2.0	-11.1
CCOC(=O)c1ccc(S(=O)(=O)N2CCC(N3CCCCC3)CC2)cc1	-5.1	11.6	17.7	12.9	1.1	i	-1.7	-7.0	2.5	-12.6
Cc1nc(CCNC(=O)Cc2ccccc2)cs1	.	-39.7	.	.	.	.	-5.6	3.4	2.4	-2.1
Cc1cc(-c2ccco2)n(-c2ccccc2)n1	.	-35.8	.	.	.	.	3.8	-13.1	.	-8.2
COc1cc2c(cc1OC)C(c1ccc(N(C)C)cc1)CC(=O)N2 (stereo not given)	.	37.5	.	.	.	.	-0.3	-3.7	5.5	10.4
CCCCSc1nnc(-c2ccc(C)cc2)c2ccccc12	-4.9	45.2	-3.2	-2.0	-3.3	i	1.2	-1.7	4.6	16.1
CN(CC(=O)Nc1ccccc1C(F)(F)F)C(=O)COc1ccccc1Cc1ccccc1	-2.0	-0.3	-32.6	-45.4	-8.2	.	?	.	-7.4	3.1
O=C(NCC(=O)N1CCCCCCC1)c1ccc(Br)o1	1.3	1.4	7.6	5.5	-0.5	i	.	-3.0	-5.0	-12.5
Cc1ccc(NC2=NCC(Cc3ccc(Br)cc3)S2)cc1 (stereo not given)	2.8	-1.4	-54.6	-79.2	-16.9	i	.	-46.2	34.1	47.4
COc1ccc(Cc2nc3ccc(C(=O)NCC(C)(C)OC)cc3o2)cc1	-1.1	.	0.8	3.7	-2.1	i	3.2	0.9	.	-20.3
COc1ccc(C(=O)NCCNc2ccc([N+](=O)[O-])cn2)cc1	3.0	-16.9	3.3	-0.6	18.0	i	-6.0	13.5	1.8	-9.4
Cn1nnnc1SCCNCc1ccccc1F	.	-5.1	.	.	.	.	-6.1	-0.1	3.7	-12.1
CCOC(=O)N1CCC(Nc2ccc(N3C(=O)C4CCCCC4C3=O)cc2[N+](=O)[O-])CC1 (stereo not given)	3.2	-8.7	-24.0	-20.4	-5.9	i	?	-0.8	-4.3	-4.6
O=C(CCc1nnc(Cc2c[nH]c3ccccc23)o1)NC(C1CC1)C1CC1	-0.7	-12.8	-6.2	-28.4	-0.6	.	0.2	0.0	-4.2	-7.5
COc1ccc(-c2cc(-c3nnc(COC(=O)CC4CC5CCC4C5)o3)c3ccccc3n2)cc1OC (stereo not given)	.	-3.2	.	.	.	.	?	-11.6	0.2	-5.6
COc1nc(N(C)C)nc(N(C#N)S(=O)(=O)c2ccc(C)cc2)n1	-13.7	-3.7	13.0	13.1	0.7	i	5.7	2.8	-0.1	-2.7
COc1ccc(-c2cc(C(=O)n3cnc4ccccc43)c3ccccc3n2)cc1	.	.	.	.	.	.	6.4	-0.9	10.6	-6.8
O=C(CN1CCN(CC(=O)c2ccc(F)cc2)CC1)Nc1ccccc1Cl	.	0.2	.	.	.	.	-0.9	-23.2	.	12.4
Cc1cnc(C(=O)OCC(=O)Nc2cccc(S(=O)(=O)N3CCCCC3)c2)cn1	3.4	-7.0	1.1	14.5	-6.1	i	1.3	4.4	-3.0	-5.7
O=C(O)/C(=C\c1ccccc1)c1ccc2ccccc2c1	1.0	-6.5	.	.	.	i	1.2	-1.7	-4.0	-7.4
COC(=O)c1ccc(Cl)c(NC(=O)CN2CCN(Cc3ccccc3)CC2)c1	.	1.9	.	.	.	.	0.3	-4.8	-3.5	18.5
COc1ccccc1NS(=O)(=O)c1cccc(C(=O)N/N=C/c2ccc(N3CCOCC3)cc2)c1	1.4	-1.9	-3.2	2.0	2.5	i	4.9	10.3	-8.6	-16.6
O=C(Oc1ccccc1)c1ccccc1OS(=O)(=O)c1ccccc1	.	1.4	.	.	.	.	3.0	-8.7	-2.7	-15.5
COc1ccc2oc(C(=O)OCC(=O)N3CCN(c4ccccc4)CC3)c(C)c2c1	-15.6	1.1	-2.3	-4.6	0.3	i	2.7	1.9	-2.2	5.1
CC(=O)C(Cc1ccccc1)NC(=O)COC(=O)c1cccc(C)c1[N+](=O)[O-] (stereo not given)	-1.1	-0.2	2.7	3.5	2.3	i	.	.	-0.6	.
CCN(CC(=O)Nc1ccc(Br)cc1)C(=O)Cc1cccc(F)c1	0.8	-5.0	-11.4	-21.8	0.2	i	-1.0	-0.9	-0.8	7.3
Cc1c(NC(=S)NC(=O)C2CCCCC2)c(=O)n(-c2ccccc2)n1C	.	-2.0	.	.	.	.	4.0	-7.0	.	-8.9
Cc1cc(C)c2sc(NC(=O)c3ccc([N+](=O)[O-])o3)nc2c1	-0.7	-13.7	-0.9	7.0	-0.5	i	1.9	4.4	2.7	59.3*
Cc1cc(NC(=O)C2(c3ccccc3)CCCC2)no1	.	2.2	.	.	.	.	2.3	14.7	3.2	-6.3
CC(C)CN(C(=O)c1ccco1)c1nc2ccccc2s1	-0.9	5.4	-19.3*	-8.3*	1.1*	.	2.8	0.5	-3.2	11.4

Complete entries from above:
O=C(Oc1ccccc1)c1ccccc1OS(=O)(=O)c1ccccc1 is entered as MLL AF4-AF9 inh = .; ALR inh = 1.4; rRNA inh HTS = .; rRNA inh HTS OD600 = .; rRNA inh HTS RFP = .; FGF22 binding = .; RanGTP-Impb inh = 3.0; Calb FLC = -8.7; Beta apoptosis = -2.7; T cruzi repl = -15.5
Clc1ccc(-c2nnc3n2CCCCC3)cc1 is entered as MLL AF4-AF9 inh = .; ALR inh = -0.9; rRNA inh HTS = .; rRNA inh HTS OD600 = .; rRNA inh HTS RFP = .; FGF22 binding = .; RanGTP-Impb inh = 2.8; Calb FLC = 4.8; Beta apoptosis = 1.0; T cruzi repl = 5.3

Next section
SMILES	MLL AF4-AF9 inh	ALR inh	rRNA inh HTS	rRNA inh HTS OD600	rRNA inh HTS RFP	FGF22 binding	RanGTP-Impb inh	Calb FLC	Beta apoptosis	T cruzi repl
CC(Sc1nc2ccccc2c(=O)n1CC1CCCO1)C(=O)N(C)Cc1ccccc1 (stereo not given)	4.6	-7.3	-4.3	-8.2	2.4	.	1.7	-5.1	-2.1	49.1
CCC(C)C(NC(=O)OC(C)(C)C)C(=O)NC(C(=O)N1CCCC1C(N)=O)C(C)CC (stereo not given)	.	-7.7	.	.	.	.	1.2	3.5	2.3	7.5
O=C(CSC(=S)N1CCCC1)N/N=C/c1c(O)[nH]c(=S)[nH]c1=O	0.5	17.2	0.5	5.1	1.1	i	.	.	-3.2	.
CCOC(=O)c1c(C)nc2c(c1-c1ccccc1)C(=O)CC(C)(C)C2	.	-3.1	.	.	.	.	0.1	-3.6	-0.6	10.3
O=C(COc1ccc([N+](=O)[O-])cc1)Nc1nnc(-c2cccnc2)s1	-25.8	-11.7	2.3	6.1	11.6	i	10.2	2.4	0.5	2.1
CCOC(=O)c1cnc(SCC(=O)Nc2cc(C(F)(F)F)ccc2N2CCOCC2)nc1N	.	-3.9	.	.	.	.	2.3	18.4	3.7	6.8
COc1ccc(CN(C)C(=S)Nc2ccc(Cl)cc2)cc1	0.1	-6.3	-14.8	-18.4	-2.9	i	-5.2	2.2	0.7	-1.9
NC(=O)c1c(NC(=O)c2ccccc2C(=O)O)sc2c1CCCC2	0.1	18.5	3.6	5.0	0.2	i	1.8	-7.0	-2.1	?
COc1ccccc1C(=O)N/C(=C\c1ccc(Br)cc1)C(=O)NCC(=O)O	1.7	-0.7	1.9	0.9	1.2	i	-0.6	-15.9	-4.2	9.1
Cc1cc(-c2nnc(CCC(=O)NC(C)c3ccccc3Cl)o2)no1 (stereo not given)	1.6	-19.3	6.1	-0.5	1.7	i	-5.6	-0.4	1.5	1.5
